Screens deposited in PubChem BioAssay by Center for Chemical Genomics, University of Michigan.
CDC25B-CDK2 inh – human CDC25B-CDK2/CyclinA binding inhibition; P30305+P24941; HTRF CDC25B-CDK2/CyclinA binding, anti-His/anti-Flag; hits give high values; z-score (no concentration beside the values); 0.72% of 94,000 active;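 note: score is relative to mean and SD of negative controls; strong numbers were not always called active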
TAR Tat displ – HIV-1 TAR-Tat binding disruption. HIV-1 TAR RNA, Tat peptide displacement FRET; hits give high values. z-score (concentration not given with the values). 0.6% of 100,000 active;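 note: score is relative to mean and SD of negative controls; some compounds called inactive have numbers as strong as hits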
* hit, by the source's call.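 Rule for the calls: active = z-score from 3 up in half or more of its runs; inactive = the rest.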 Rows are unselected (roughly 0.94% active in at least one column).

Screening O=S(=O)(c1ccccc1)n1nc(-c2ccco2)nc1NCc1ccccc1 returned CDC25B-CDK2 inh -1.1 and TAR Tat displ 0.69.
`CCOC(=O)c1c(S(=O)(=O)Nc2cc(Cl)ccc2OC)c(C)n(C)c1C` gave TAR Tat displ 0.9.
Screening N#C/C(=C\C=C\c1ccccc1)c1nc2ccccc2[nH]1 returned CDC25B-CDK2 inh -0.88.
For COc1ccc(OCc2nc(-c3ccc(NS(C)(=O)=O)cc3)no2)cc1 the results were TAR Tat displ 1.6.
`CCCCOc1ccc(C(C)(O)CCN2CCOCC2)cc1` (configuration not stated) gave CDC25B-CDK2 inh -2.8.
`Cc1nc2nc(NCc3ccc(Br)cc3)[nH]n2c(=O)c1C` gave CDC25B-CDK2 inh -0.24 and TAR Tat displ 1.1.
Screening CCCS(=O)(=O)N1CCCc2ccc(NS(C)(=O)=O)cc21 returned TAR Tat displ 0.27.
Screening CN(C)c1ccc(C2CC(=O)C=C(NCCc3ccccn3)C2)cc1 (configuration not stated) returned CDC25B-CDK2 inh -1.1.
`Cc1nc2ncnn2c(C)c1CCC(=O)NCCC(C)C` gave CDC25B-CDK2 inh -1 and TAR Tat displ 1.8.
Screening O=C(CCCCn1c(=O)[nH]c2ccsc2c1=O)N1CCc2ccccc2C1 returned CDC25B-CDK2 inh -0.76 and TAR Tat displ 2.3.
`COc1ccccc1-c1nc(-c2cc3ccccc3nc2OC)no1` gave CDC25B-CDK2 inh -1.8 and TAR Tat displ 3.3.
For C=CCN1C(C(=O)c2ccccc2)=C(OC(=O)COc2ccc(C)cc2)c2ccccc2S1(=O)=O the results were CDC25B-CDK2 inh -0.44 and TAR Tat displ -0.52.
For Cc1sc(-c2nc(-c3ccc(F)cc3)no2)cc1S(=O)(=O)N1CCc2ccccc2C1 the results were TAR Tat displ 0.33.
Screening O=C(COCc1cc(-c2ccco2)on1)NCc1ccc2c(c1)OCO2 returned TAR Tat displ 0.62.
For O=C(c1cnn(-c2ccc(F)cc2)c1-n1cccc1)N1CCCC(C(=O)N2CCOCC2)C1 (configuration not stated) the results were TAR Tat displ 1.9.
For COc1ccc(-c2noc(CSc3nnc(-c4ccncc4)n3-c3ccc(C)cc3)n2)cc1 the results were CDC25B-CDK2 inh -0.03 and TAR Tat displ 3.2.
For Cc1cc(=O)[nH]c(SCc2ccccc2Cl)n1 the results were CDC25B-CDK2 inh -0.17 and TAR Tat displ 0.37.
CC(=O)N1CCc2cc(S(=O)(=O)NC(C(=O)NC3CCCCCC3)C(C)C)ccc21 (configuration not stated) was read as CDC25B-CDK2 inh -0.31.
COc1cc(C2c3c(-c4cc(C)ccc4O)n[nH]c3C(=O)N2Cc2ccco2)ccc1O (configuration not stated) was read as CDC25B-CDK2 inh 0.07 and TAR Tat displ 0.59.
For O=C1C=C(NCc2ccc3c(c2)OCO3)CC(c2ccccc2)C1 (configuration not stated) the results were CDC25B-CDK2 inh -0.05 and TAR Tat displ 1.2.
`COc1ccccc1-c1nn2c(-c3ccccc3Cl)nnc2s1` gave CDC25B-CDK2 inh -0.92 and TAR Tat displ 2.5.
COc1cc2c(c(OC)c1OC)C(=O)/C(=C/N(C)C)C2 was read as CDC25B-CDK2 inh 0.09.
For CC(C)C1N=C2c3ccccc3N=C(SCC(=O)Nc3ccc(Cl)cc3)N2C1=O (configuration not stated) the results were TAR Tat displ 0.89.
CN(C)N=Nc1cccc(/C=C/C(=O)O)c1 was read as CDC25B-CDK2 inh -0.88.
COc1ccc(OC)c(S(=O)(=O)NCCS(=O)(=O)N2CCN(c3ccc(F)cc3)CC2)c1 was read as TAR Tat displ -0.22.
Screening O=C(CN(C1=NC2CS(=O)(=O)CC2S1)c1ccc(F)cc1)Nc1ccc(Br)cc1 (configuration not stated) returned CDC25B-CDK2 inh -4 and TAR Tat displ 2.5.
O=C(c1cc(-c2ccco2)on1)N1CCN(c2ccccc2)CC1 was read as CDC25B-CDK2 inh 1.1 and TAR Tat displ -0.17.
For CN(C)CCNc1nc2c(c(=O)[nH]c(=O)n2C)n1Cc1cccc(Br)c1 the results were CDC25B-CDK2 inh 0.11 and TAR Tat displ -1.5.
For O=C(Nc1ccc2oc(-c3ccncc3)nc2c1)c1cccnc1 the results were CDC25B-CDK2 inh 0.55.
Screening CCOc1ccccc1NC(=O)N1CCSc2ccccc21 returned TAR Tat displ 1.
COc1ccc(C2=Nc3cccnc3NC(=O)C2)cc1 was read as CDC25B-CDK2 inh 16* and TAR Tat displ -5.
Cc1nnc2c(NC3CC3)nc3ccccc3n12 was read as CDC25B-CDK2 inh -1.3 and TAR Tat displ 1.9.
`COc1ccc(Cn2c(CO)cnc2SCCc2ccccc2)cc1` gave TAR Tat displ 2.5.
For Cc1nc2ccc(S(=O)(=O)NC(C(=O)N3CCN(C4CCCCC4)CC3)C(C)C)cc2s1 (configuration not stated) the results were CDC25B-CDK2 inh -0.71.
Screening O=S1(=O)C[C@H](NCc2ccccc2Cl)[C@@H](S(=O)(=O)c2ccccc2)C1 returned CDC25B-CDK2 inh -2.5 and TAR Tat displ 1.2.
`CCCSCCCN1C(=O)c2cc3occc3n2CC1(C)C(=O)NC1CCCCC1C` (configuration not stated) gave TAR Tat displ 2.3.
Screening COc1ccc(NC(=O)NC(C)c2c(-n3cccc3)sc(C)c2C)c(OC)c1 (configuration not stated) returned CDC25B-CDK2 inh -6.5 and TAR Tat displ 0.51.
`CSc1nnc(NC(=O)c2cc(-c3cccs3)on2)s1` gave CDC25B-CDK2 inh -1.6 and TAR Tat displ 2.3.
For Cc1ccc(Cn2ncc3ccccc32)cc1 the results were CDC25B-CDK2 inh -1.5 and TAR Tat displ 0.58.
For O=[N+]([O-])c1ccc(-c2ccc(/C=N/NC(=S)Nc3cccc(F)c3)o2)cc1 the results were CDC25B-CDK2 inh -1.4.
`CC(C)CCN1CCC(CNS(=O)(=O)c2csc(C(N)=O)c2)CC1` gave TAR Tat displ 2.
For Cc1nn(C)cc1CNC(=O)c1cc2nc(-c3ccc(Cl)cc3)cc(C(F)(F)F)n2n1 the results were CDC25B-CDK2 inh -1.7.
For CCOc1ccc(N2C(=O)CCC2(C)C(=O)NC2CCCC2)cc1 (configuration not stated) the results were CDC25B-CDK2 inh -0.54 and TAR Tat displ 0.12.
Screening COC(=O)[C@@]1(C)CCC[C@]2(C)c3ccc(O)c(C(C)C)c3CCC12 (some centres not stated) returned TAR Tat displ 1.1.
Screening CC1(C)O[C@H]2O[C@H](CO)[C@@H](O)[C@H](O)[C@H]2O1 returned CDC25B-CDK2 inh -2.4.
COc1ccc(C(=O)Nc2nc3c(s2)Cc2c(Br)ccc(OC)c2-3)cc1OC was read as CDC25B-CDK2 inh 0.29 and TAR Tat displ 1.2.
`CC(C)Cc1cnc2c(c1SCC(=O)Nc1nccs1)c(=O)n(C)c(=O)n2C` gave TAR Tat displ 0.78.
For c1ccc(-c2cc(NCc3ccco3)n3c(n2)nc2ccccc23)cc1 the results were CDC25B-CDK2 inh -0.12 and TAR Tat displ -1.3.
CCOC(=O)c1ccc2[nH]c(CSc3nnc(C)n3C)cc(=O)c2c1 was read as TAR Tat displ 1.1.
`Cc1cc(Nc2ccccc2)nc(N2CCN(C(=O)Nc3ccccc3)CC2)n1` gave TAR Tat displ -0.42.
For Cc1ccnc(NC(c2cccnc2)c2ccc3ccc(C)nc3c2O)c1 (configuration not stated) the results were CDC25B-CDK2 inh -0.9.
COc1cccc2cc(C3=Nn4c(nnc4-c4ccc(Br)cc4)SC3)c(=O)oc12 was read as CDC25B-CDK2 inh -1.6.
Screening O=C(NC1Cc2ccccc2C1)c1nnc(-c2ccccc2)o1 returned CDC25B-CDK2 inh -2.
CCNc1nc(Cl)nc(Oc2ccc(=O)n(-c3ccccc3)n2)n1 was read as CDC25B-CDK2 inh -0.17 and TAR Tat displ 2.2.
CCOCCCNc1nc2c(S(=O)(=O)c3cc(C)ccc3C)nnn2c2ccsc12 was read as TAR Tat displ -0.71.
Screening Cc1ccc(SC#N)c(N)n1 returned CDC25B-CDK2 inh -3.5.
Screening Cc1ccc(-n2ccn3c(CCCC(=O)O)nnc3c2=O)cc1C returned CDC25B-CDK2 inh -0.62 and TAR Tat displ 1.1.
For O=C1CC(c2ccccc2)CC2=C1C(c1cccc(Cl)c1)Nc1ccccc1N2 (configuration not stated) the results were CDC25B-CDK2 inh -0.12 and TAR Tat displ 0.27.
Screening COc1ccc(-c2n[nH]c3c2C(c2cccc(Br)c2)NC3=O)cc1 (configuration not stated) returned CDC25B-CDK2 inh 0.39 and TAR Tat displ 1.6.
Screening O=S(=O)(NCCc1csc2nc(-c3ccc(Cl)cc3)nn12)c1ccc2c(c1)OCCO2 returned TAR Tat displ 0.72.
Screening COc1cc(N)c(Cl)cc1C(=O)NC1CCN(Cc2ccccc2)CC1 returned TAR Tat displ -0.16.
For COc1ccc(S(=O)(=O)Nc2ccc(Cl)cn2)cc1OC the results were CDC25B-CDK2 inh -0.04.
Screening C=CCN1C(=O)C(O)(CC(=O)c2cc(OC)ccc2OC)c2ccccc21 (configuration not stated) returned CDC25B-CDK2 inh 0.45.
`O=C(Nc1ccc2c(c1)OCCO2)c1noc2c1CCCC2` gave TAR Tat displ 0.68.
`COc1ccc(-c2cc(C(=O)N(Cc3ccco3)C3CCS(=O)(=O)C3)no2)cc1` (configuration not stated) gave CDC25B-CDK2 inh -2.5 and TAR Tat displ 2.
`CC1=C(C(=O)NCCCN2CCCC2)C2(CCN(S(=O)(=O)c3cccs3)CC2)OC1=O` gave TAR Tat displ 1.
Screening Cc1ccc(NS(=O)(=O)c2ccc(-c3ccc(=O)[nH]n3)o2)cc1N(C)C returned TAR Tat displ 1.1.
Screening Cc1ccc(Cl)cc1N1CCN(c2c(O)c(=O)c2=O)CC1 returned TAR Tat displ -0.05.
`Cc1cccc(NC(=O)C2CCCN(c3ncnc4c3nc3n4CCCCC3)C2)n1` (configuration not stated) gave TAR Tat displ -0.05.
CCNC(=O)C(Cc1ccccc1)NC(=O)OC(C)(C)C (configuration not stated) was read as CDC25B-CDK2 inh -0.72.
`Cc1cc(C)c2c(CC(=O)Nc3sc4c(c3C(=O)NCc3ccco3)CCCC4)coc2c1` gave CDC25B-CDK2 inh 2.3 and TAR Tat displ 1.4.
`c1ccc(-c2cn(-c3ccccc3)c3ncnc(NCc4cccnc4)c23)cc1` gave TAR Tat displ 1.1.
Nc1nc(SCC(=O)NCCCO)nc2sc3c(c12)CCCC3 was read as CDC25B-CDK2 inh -0.12 and TAR Tat displ 0.8.
For Nc1nonc1-n1nnc(C(=O)O)c1-c1ccc(C2CCCCC2)cc1 the results were CDC25B-CDK2 inh -1.4 and TAR Tat displ -0.27.
For Cc1sc(-c2c[nH]c3ccccc23)nc1-c1c[nH]c2ccccc12 the results were CDC25B-CDK2 inh 18*.
`O=C(NCC(c1ccco1)N1CCCC1)c1cc(-c2ccc(Br)cc2)on1` (configuration not stated) gave CDC25B-CDK2 inh -1.5 and TAR Tat displ -0.12.
`Cc1ccc(-c2nc(SCc3cc(=O)c4ccccc4[nH]3)n[nH]2)cc1` gave TAR Tat displ -0.73.
Screening COC(=O)c1cc(S(=O)(=O)N2CCCC(C)C2)c[nH]1 (configuration not stated) returned TAR Tat displ 4.1.
`Nc1nc(Cl)nc2c1ncn2[C@@H]1O[C@H](CO)[C@H](O)C1O` (some centres not stated) gave CDC25B-CDK2 inh -2.9.
Cn1c(O)c(C2=Nc3ccccc3SC(c3ccc(O)cc3)C2)c(=O)n(C)c1=O (configuration not stated) was read as CDC25B-CDK2 inh -1.6 and TAR Tat displ 0.41.
O=C(NCCCO)C(=O)NC1CCCCC1 was read as CDC25B-CDK2 inh -0.73 and TAR Tat displ 0.41.
Screening COc1ccc(OC)c(NC2=C(c3ccccc3)C(=O)c3ccccc32)c1 returned CDC25B-CDK2 inh -2.5 and TAR Tat displ 2.7.
CCc1nnc(SCc2nc(-c3cccs3)oc2C)c2cc3occc3n12 was read as TAR Tat displ -8.4.
For Cc1cccc(-c2noc(-c3ccccc3C)n2)c1 the results were CDC25B-CDK2 inh 0.86.
Screening CCc1cc2c(s1)SCC(=O)N2CC(=O)NCCC1=CCCCC1 returned TAR Tat displ -1.5.

An excerpt taken from the entries so far, for reference:
`Cc1cccc(NC(=O)C2CCCN(c3ncnc4c3nc3n4CCCCC3)C2)n1` (configuration not stated) gave TAR Tat displ -0.05.
CCNC(=O)C(Cc1ccccc1)NC(=O)OC(C)(C)C (configuration not stated) was read as CDC25B-CDK2 inh -0.72.
`Cc1cc(C)c2c(CC(=O)Nc3sc4c(c3C(=O)NCc3ccco3)CCCC4)coc2c1` gave CDC25B-CDK2 inh 2.3 and TAR Tat displ 1.4.
`c1ccc(-c2cn(-c3ccccc3)c3ncnc(NCc4cccnc4)c23)cc1` gave TAR Tat displ 1.1.
Nc1nc(SCC(=O)NCCCO)nc2sc3c(c12)CCCC3 was read as CDC25B-CDK2 inh -0.12 and TAR Tat displ 0.8.
For Nc1nonc1-n1nnc(C(=O)O)c1-c1ccc(C2CCCCC2)cc1 the results were CDC25B-CDK2 inh -1.4 and TAR Tat displ -0.27.
For Cc1sc(-c2c[nH]c3ccccc23)nc1-c1c[nH]c2ccccc12 the results were CDC25B-CDK2 inh 18*.
`O=C(NCC(c1ccco1)N1CCCC1)c1cc(-c2ccc(Br)cc2)on1` (configuration not stated) gave CDC25B-CDK2 inh -1.5 and TAR Tat displ -0.12.
`Cc1ccc(-c2nc(SCc3cc(=O)c4ccccc4[nH]3)n[nH]2)cc1` gave TAR Tat displ -0.73.
Screening COC(=O)c1cc(S(=O)(=O)N2CCCC(C)C2)c[nH]1 (configuration not stated) returned TAR Tat displ 4.1.
`Nc1nc(Cl)nc2c1ncn2[C@@H]1O[C@H](CO)[C@H](O)C1O` (some centres not stated) gave CDC25B-CDK2 inh -2.9.
Cn1c(O)c(C2=Nc3ccccc3SC(c3ccc(O)cc3)C2)c(=O)n(C)c1=O (configuration not stated) was read as CDC25B-CDK2 inh -1.6 and TAR Tat displ 0.41.
O=C(NCCCO)C(=O)NC1CCCCC1 was read as CDC25B-CDK2 inh -0.73 and TAR Tat displ 0.41.
Screening COc1ccc(OC)c(NC2=C(c3ccccc3)C(=O)c3ccccc32)c1 returned CDC25B-CDK2 inh -2.5 and TAR Tat displ 2.7.
